Screening results (PubChem)
Env fusion inh: inhibitors of HIV-1 Env-driven cell-cell fusion, primary screen, HeLa-JRFL effector, CEM21 target cells, luciferase. inhibition, % at 12.3 µM. 1.1% of 360,000 active. AID 651610, 2012;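 active = mean replicate inhibition score of at least 50 and every replicate individually at or above 50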;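 note: 0% = plate neutral controls and 100% = maraviroc near 300 nM; one replicate is shown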
The depositor's hits bear a star; [ ] = dose if it differs, or a comment. Not all compounds are listed. The share of hits here may be higher or lower than overall.

SMILES	Env fusion inh
COc1cc(CN2CC3(CCN(C(=O)Nc4c(C)noc4C)CC3)c3c([nH]c4cc(OC)ccc34)[C@@H]2CO)cc(OC)c1	-16[16.7 µM]
COC(=O)C1=C(C)N(Cc2ccccc2C(F)(F)F)C(=NCC2CC2)NC1c1cccc(Cl)c1 (stereo unspecified)	-4
CO[C@@H]1CN(C)C(=O)c2cc(NC(=O)Nc3cccc(Cl)c3)ccc2OC[C@@H](C)NC[C@H]1C	0[16.7 µM]
O=C(NCc1ccccc1)[C@@H]1CCCN1C(=O)[C@H]1CCCN1C(=O)c1ccc(F)cc1F	-18
C[C@@H]1CN([C@@H](C)CO)C(=O)c2cc(N(C)C)ccc2O[C@H]1CN(C)C(=O)NC1CCCCC1	-22[16.7 µM]
Cc1nn(C)cc1NC(=O)C[C@@H]1CC[C@H]2[C@H](COc3ccc(NC(=O)c4cccc(F)c4)cc3C(=O)N2C)O1	22[16.7 µM]
CS(=O)(=O)Nc1ccc2c(c1)[C@@H]1C[C@H](CC(=O)NC3CCCC3)O[C@H](CO)[C@@H]1O2	-25[16.7 µM]
C[C@@H]1CN([C@@H](C)CO)C(=O)CCCn2cc(nn2)CO[C@@H]1CN(C)S(=O)(=O)c1cccc(F)c1	20[16.7 µM]
C[C@@H]1CN([C@H](C)CO)C(=O)c2cc(NC(=O)C3CC3)ccc2O[C@@H]1CN(C)C	-47[16.7 µM]
COC(=O)[C@]12C[C@H](CC(=O)NCc3ccccc3)C(=O)N(Cc3ccc4c(c3)OCO4)C1=C[C@H](COCc1ccccc1)O[C@@H]2C	1
COc1ccc(NC(=O)N(C)C[C@H]2OCc3cn(nn3)CCCC(=O)N([C@@H](C)CO)C[C@H]2C)cc1	-7[16.7 µM]
CN(C)CC(=O)Nc1ccc2c(c1)[C@@H]1C[C@@H](CC(=O)NCc3ccc(-c4ccccc4)cc3)O[C@@H](CO)[C@@H]1O2	-28[16.7 µM]
CO[C@H]1CN(C)C(=O)c2cc(NS(=O)(=O)c3cn(C)cn3)ccc2OC[C@H](C)N(CC2CC2)C[C@@H]1C	0[16.7 µM]
CCCN1C[C@H](C)[C@H](OC)CN(C)C(=O)c2cc(NS(=O)(=O)c3ccccc3)ccc2OC[C@@H]1C	39[16.7 µM]
C[C@H]1CN([C@@H](C)CO)C(=O)CCCn2cc(nn2)CO[C@H]1CN(C)C(=O)Oc1ccccc1	-9[16.7 µM]
CCCN(C)C[C@H]1OCCCC[C@H](C)Oc2ccc(NS(=O)(=O)c3ccc(C)cc3)cc2C(=O)N([C@@H](C)CO)C[C@H]1C	-38[16.7 µM]
CC(C)OC(=O)N(C)C[C@@H]1OCc2ccccc2-c2ccccc2C(=O)N([C@@H](C)CO)C[C@@H]1C	-8[16.7 µM]
C[C@@H]1CCCCO[C@H](CN(C)CC2CC2)[C@H](C)CN([C@@H](C)CO)C(=O)c2cc(NC(=O)Nc3ccc4c(c3)OCO4)ccc2O1	-13[16.7 µM]
CO[C@@H]1CN(C)C(=O)c2cc(NC(=O)CC(F)(F)F)ccc2OC[C@H](C)N(S(=O)(=O)c2cn(C)cn2)C[C@H]1C	5[16.7 µM]
CCOC(=O)C1CSCCS(=O)(=O)N1Cc1cccc(F)c1 (stereo unspecified)	-2
C[C@@H](NC(=O)C[C@@H]1C[C@@H]2c3cc(NS(=O)(=O)c4ccc(F)cc4)ccc3O[C@@H]2[C@H](CO)O1)c1ccccc1	-13[16.7 µM]
Cc1ccc(-c2ccc3c(c2)O[C@H](CN(C)Cc2cncnc2)[C@H](C)CN([C@@H](C)CO)S3(=O)=O)cc1	-12[16.7 µM]
Cn1cnc(S(=O)(=O)N2CC[C@@H]3[C@@H](CO)Nc4ccc(C#Cc5ccccc5F)cc4[C@@H]32)c1	5[16.7 µM]
Cn1cnc(S(=O)(=O)N2C[C@@H](O)COC[C@H]3O[C@H](CC(=O)NCc4cccc(F)c4)CC[C@@H]32)c1	-3[16.7 µM]
CCOC(=O)C1=C(C(=O)OCC)C2N(Cc3ccccc3)c3ccccc3[C@@]23C[C@@H](C(=O)OC)N(S(=O)(=O)c2ccc(C(F)(F)F)cc2)C3=N1 (stereo partly specified)	-3

Another view of some results above:
compound | Env fusion inh
COc1cc(CN2CC3(CCN(C(=O)Nc4c(C)noc4C)CC3)c3c([nH]c4cc(OC)ccc34)[C@@H]2CO)cc(OC)c1 | -16[16.7 µM]
COC(=O)C1=C(C)N(Cc2ccccc2C(F)(F)F)C(=NCC2CC2)NC1c1cccc(Cl)c1 (stereo unspecified) | -4
CO[C@@H]1CN(C)C(=O)c2cc(NC(=O)Nc3cccc(Cl)c3)ccc2OC[C@@H](C)NC[C@H]1C | 0[16.7 µM]
O=C(NCc1ccccc1)[C@@H]1CCCN1C(=O)[C@H]1CCCN1C(=O)c1ccc(F)cc1F | -18
C[C@@H]1CN([C@@H](C)CO)C(=O)c2cc(N(C)C)ccc2O[C@H]1CN(C)C(=O)NC1CCCCC1 | -22[16.7 µM]
Cc1nn(C)cc1NC(=O)C[C@@H]1CC[C@H]2[C@H](COc3ccc(NC(=O)c4cccc(F)c4)cc3C(=O)N2C)O1 | 22[16.7 µM]
CS(=O)(=O)Nc1ccc2c(c1)[C@@H]1C[C@H](CC(=O)NC3CCCC3)O[C@H](CO)[C@@H]1O2 | -25[16.7 µM]
C[C@@H]1CN([C@@H](C)CO)C(=O)CCCn2cc(nn2)CO[C@@H]1CN(C)S(=O)(=O)c1cccc(F)c1 | 20[16.7 µM]
C[C@@H]1CN([C@H](C)CO)C(=O)c2cc(NC(=O)C3CC3)ccc2O[C@@H]1CN(C)C | -47[16.7 µM]
COC(=O)[C@]12C[C@H](CC(=O)NCc3ccccc3)C(=O)N(Cc3ccc4c(c3)OCO4)C1=C[C@H](COCc1ccccc1)O[C@@H]2C | 1
COc1ccc(NC(=O)N(C)C[C@H]2OCc3cn(nn3)CCCC(=O)N([C@@H](C)CO)C[C@H]2C)cc1 | -7[16.7 µM]
CN(C)CC(=O)Nc1ccc2c(c1)[C@@H]1C[C@@H](CC(=O)NCc3ccc(-c4ccccc4)cc3)O[C@@H](CO)[C@@H]1O2 | -28[16.7 µM]

(listing goes on)
SMILES	Env fusion inh
Cc1cc(N=O)no1	5
O=C(C[C@@H]1C=C[C@H](NS(=O)(=O)c2ccc(F)cc2)[C@H](CO)O1)NC1CCCCC1	12[16.7 µM]
CN1[C@@H]2Cn3c(ccc(-c4cccnc4)c3=O)[C@H]1[C@@H](C(=O)NCCc1ccccc1)[C@@H]2CO	15[16.7 µM]
COCC(=O)N1[C@@H]2c3ccc(-c4ccccc4)c(=O)n3C[C@H]1[C@H](CO)[C@H]2C(=O)NCc1ccccn1	20[16.7 µM]
COCCNC(=O)C[C@@H]1CC[C@H]2[C@@H](COc3ccc(NC(=O)Cc4ccccc4)cc3C(=O)N2C)O1	5[16.7 µM]
C[C@H]1CN([C@@H](C)CO)C(=O)c2c(c3ccccc3n2C)-c2ccccc2CO[C@@H]1CN(C)C	3[16.7 µM]
CC(=O)N1C[C@H]2CON(C)[C@H]2C[C@H]1c1ccccc1-c1ccccc1	20
O=C(C[C@H]1C=C[C@@H](NC(=O)c2ccccn2)[C@H](CO)O1)NCc1cc(F)cc(F)c1	-23[16.7 µM]
C[C@H]1CN([C@@H](C)CO)C(=O)c2cc(NS(=O)(=O)c3ccccc3)ccc2O[C@@H]1CN(C)S(=O)(=O)c1ccc(Cl)cc1	5[16.7 µM]
Cc1ccc(S(=O)(=O)N(C)C[C@H]2Oc3ccc(NC(=O)Nc4cccc5ccccc45)cc3C(=O)N([C@@H](C)CO)C[C@H]2C)cc1	28[16.7 µM]
Cc1ccc(C2NC(=O)c3n[nH]c(C(C)C)c32)cc1 (stereo unspecified)	0
CC(C)(O)C#Cc1cccc(-c2nc(C(=O)O)cc3c2[C@H](CCO)N(S(=O)C(C)(C)C)C3)c1 (stereo partly specified)	14[16.7 µM]
C[C@@H]1CN([C@H](C)CO)C(=O)c2cc(NC(=O)Cn3cnnn3)ccc2O[C@H]1CN(C)S(=O)(=O)c1ccc(Cl)cc1	-9[16.7 µM]
O=C(C[C@H]1CC[C@H]2NC[C@@H](O)COC[C@@H]2O1)Nc1ccc(-c2ccccc2)cc1	-8[16.7 µM]
C[C@H]1CN([C@@H](C)CO)S(=O)(=O)c2ccc(-c3ccc(C(=O)N(C)C)cc3)cc2O[C@H]1CN(C)C(=O)C1CC1	-8[16.7 µM]
O=C(C[C@H]1CC[C@@H]2[C@H](COC[C@@H](O)CN2C(=O)Nc2cc(Cl)cc(Cl)c2)O1)N1CCOCC1	-9[16.7 µM]
COc1ccc(NC(=O)Nc2cccc3c2O[C@@H](CN(C)C(=O)NC(C)C)[C@@H](C)CN([C@H](C)CO)C3=O)cc1	-1[16.7 µM]
O=C(Cc1ccncc1)Nc1ccc2c(c1)[C@@H]1C[C@H](CC(=O)N3CCc4ccccc4C3)O[C@@H](CO)[C@@H]1O2	7[16.7 µM]
O=C(C[C@@H]1CC[C@H]2[C@@H](COC[C@@H](O)CN2C(=O)c2ccncc2)O1)NCc1cccc(F)c1	8[16.7 µM]
C[C@@H]1CN([C@H](C)CO)C(=O)c2c(c3ccccc3n2C)-c2ccccc2CO[C@@H]1CN(C)S(=O)(=O)c1ccsc1	-26[16.7 µM]
CCC(=O)Nc1ccc2c(c1)OC[C@@H](C)N(C(=O)c1ccc(F)cc1)C[C@H](C)[C@H](OC)CN(C)C2=O	-4[16.7 µM]
COC(=O)C[C@H]1C[C@@H]2c3cc(NC(=O)Nc4ccccc4)ccc3O[C@@H]2[C@H](CO)O1	-5[16.7 µM]
CO[C@H](CN(C)S(=O)(=O)c1ccc(F)cc1)[C@@H](C)CN(C(=O)Nc1ccccc1F)[C@@H](C)CO	-3[16.7 µM]
CO[C@H]1CN(C)C(=O)c2cc(NS(=O)(=O)c3ccc(C)cc3)ccc2OC[C@@H](C)N(C(=O)NC(C)C)C[C@@H]1C	-1[16.7 µM]
O=C(C[C@@H]1C[C@@H]2c3cc(NC(=O)Nc4ccc(C(F)(F)F)cc4)ccc3O[C@@H]2[C@@H](CO)O1)NCc1cc(F)ccc1F	-8[16.7 µM]
Later entries:
SMILES	Env fusion inh
Cc1ccc(S(=O)(=O)N(C)c2cccc3c2S(=O)(=O)N([C@H](C)c2ccccc2)C[C@@H](COCc2ccccc2)O3)cc1	14
COc1ccccc1-c1cccc(-c2nc(C(=O)N3CCCCC3)cc3c2[C@@H](CCO)N([S@](=O)C(C)(C)C)C3)c1	2[16.7 µM]
C[C@@H]1CN([C@H](C)CO)S(=O)(=O)c2ccc(C#CC3CC3)cc2O[C@@H]1CN(C)Cc1cncnc1	25[16.7 µM]
Cc1noc(C)c1NC(=O)N(C)C[C@@H]1Oc2ccc(NC(=O)Cc3ccccc3)cc2C(=O)N([C@H](C)CO)C[C@@H]1C	4[16.7 µM]
O=C(Nc1ccc(Cl)c(Cl)c1)N[C@@H]1CC[C@@H](CCNC(=O)c2ccc(F)cc2)O[C@@H]1CO	-14[16.7 µM]
COC(=O)[C@@H]1[C@@H](CO)[C@@H]2Cn3c(ccc(-c4ccccc4OC)c3=O)[C@@H]2N1CC1CCCC1	-33[16.7 µM]
CO[C@@H]1CN(C)C(=O)c2ccc(NC(=O)C3CCOCC3)cc2OC[C@H](C)N(Cc2nccs2)C[C@H]1C	-9[16.7 µM]
O=C([C@@H]1[C@@H](CO)[C@@H]2Cn3c(ccc(-c4ccccc4)c3=O)[C@H]1N2Cc1cccnc1)N1CCOCC1	8[16.7 µM]
CC(C)NC(=O)Nc1ccc2c(c1)C(=O)N([C@@H](C)CO)C[C@H](C)[C@@H](CN(C)C(=O)CCC(F)(F)F)OCCCC[C@H](C)O2	15[16.7 µM]
Cc1noc(C)c1NC(=O)Nc1ccc2c(c1)C(=O)N([C@H](C)CO)C[C@H](C)[C@H](CN(C)CC1CC1)OCCCC[C@H](C)O2	13[16.7 µM]
C[C@H]1CN([C@@H](C)CO)C(=O)c2cc(NC(=O)Nc3ccc4c(c3)OCO4)ccc2O[C@H]1CN(C)Cc1ccncc1	13[16.7 µM]
COc1ccc(NC(=O)N(C)C[C@H]2Oc3ccc(NC(=O)NC4CCCCC4)cc3CC(=O)N([C@@H](C)CO)C[C@H]2C)cc1	-4[16.7 µM]
COc1ccc2c3c(n(C)c2c1)[C@H](CO)N(Cc1ccc2c(c1)OCO2)CC31CN(C(=O)c2ccc3c(c2)OCO3)C1	7[16.7 µM]
O=C(C[C@@H]1CC[C@H]2[C@@H](COC[C@@H](O)CN2Cc2ccccc2)O1)N1CCOCC1	-12[16.7 µM]
COc1ccc(CNC(=O)C[C@H]2C=C[C@@H](NS(=O)(=O)c3cccc(OC)c3)[C@@H](CO)O2)cc1	-1[16.7 µM]
CO[C@@H]1CC[C@H]2CCOc3ccc(C#N)cc3C(=O)N(C)C[C@@H](OC)[C@@H](C)C(=O)N(C)C[C@@H]1O2	15[16.7 µM]
COC(=O)C1=C(C)N(Cc2ccc(C(F)(F)F)cc2)C(=NCC2CC2)NC1c1ccccc1 (stereo unspecified)	-33
CCCNC(=O)N1C[C@@H](O)COC[C@H]2O[C@@H](CC(=O)N3CCN(C)CC3)CC[C@@H]21	0[16.7 µM]
O=S1(=O)c2ccc(Br)cc2OC2CCCC[C@@H]2N1Cc1ccccc1 (stereo partly specified)	3
CCCNC(=O)N1C[C@@H](C)[C@@H](OC)CN(C)C(=O)c2ccc(NC(=O)CC)cc2OC[C@H]1C	2[16.7 µM]
O=C(C[C@H]1CC[C@@H]2[C@H](COC[C@H](O)CN2Cc2cccc(Cl)c2)O1)N1CCCCC1	0[16.7 µM]
C[C@H]1CN([C@@H](C)CO)C(=O)c2cc(NS(=O)(=O)c3ccc(Cl)cc3)ccc2O[C@H]1CN(C)C(=O)Nc1ccc(C(F)(F)F)cc1	0[16.7 µM]
O=C1c2ccccc2/C(=C\c2ccc(Br)nc2)N1c1ccccc1	-38
COCC(=O)Nc1ccc2c(c1)OC[C@@H](C)N(Cc1cccnc1)C[C@@H](C)[C@@H](OC)CN(C)C2=O	14[16.7 µM]
COc1ccc(NC(=O)N(C)C[C@@H]2OCCCC[C@@H](C)Oc3ccc(NC(=O)c4ccccc4)cc3C(=O)N([C@@H](C)CO)C[C@@H]2C)cc1	-12[16.7 µM]
COc1ccc2c3c(n(C)c2c1)[C@@H](CO)N(C(=O)Nc1ccc(F)cc1)CC31CCN(C(=O)CN2CCOCC2)CC1	-37[16.7 µM]
